Screens from PubChem.
NPYLR7 agonist: mosquito NPYLR7 agonism. HEK293T NPYLR7/Galpha15, GCaMP6s calcium fluorescence. activation, % at 10 µM. hit rate 0.15% among 270,000; in the data active = activation above about 40%;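 note: 0% = vehicle and 100% = reference agonist at the receptor; some compounds past the cut are filed as inactive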
NPYLR7 agonist max-min: further read-out of NPYLR7 agonist, marked with its call; activation, %; measured here: Max-Min RFU normalised activation; some inactives read as strong as hits;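 span of the calcium signal over five minutes; 0% = vehicle and 100% = native peptide agonist; compound fluorescence can raise it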
The depositor's hits bear a star; & = joins results of further samples. These rows are one share of the data; the hit share may differ from the screen's.

No. | Molecule | NPYLR7 agonist max-min | NPYLR7 agonist
1 | Cc1nn(C2CCS(=O)(=O)C2)c(C)c1S(=O)(=O)NCc1nc2ccccc2[nH]1 (stereo not drawn) | -2 | -2
2 | Cc1c(C(=O)N2CCN(C(=O)c3ccc4c(c3)OCO4)CC2)cc(-c2ccc(F)cc2)n1-c1ccccc1 | 3 | -5
3 | Cc1ccnn1-c1ccc(C(=O)NC2CCC(O)CC2)cc1 (stereo not drawn) | 5 | 6
4 | Cn1cnc(-c2ccccc2)cc1=O | -20 | -18
5 | Cc1cccc(S(=O)(=O)N2CCN(C(=O)C3CC=CCC3)CC2)c1 (stereo not drawn) | 0 | 1
6 | Cc1nc2scc(C)n2c(=O)c1NC(=O)c1ccc(C(F)(F)F)cc1 | -1 | 8
7 | Cn1c2c(c(=O)[nH]c1=O)C(NS(=O)(=O)c1ccc(N)cc1)(C(F)(F)F)C(=O)N2 (stereo not drawn) | -17 | -13
8 | COc1ccc(CCOC(=O)[C@@H]2CCCN2C(=O)C(C)c2cccc(C(=O)c3ccccc3)c2)cc1OC (stereo partly drawn) | -7 | -8
9 | Cc1ccc(NC(=O)c2ccccc2C)c(NC(=O)C(C)(C)O)c1 | -4 | 8
10 | CC1(C)ON=C(c2ccc(C(F)(F)F)cc2)NC1=O | 6 | 10
11 | Cc1cccc(OCCCC(=O)NNC(=O)c2nn(C)c(=O)c3ccccc23)c1 | -2 | -4
12 | CC(=O)O[C@H]1CC[C@@]2(C)C(CC[C@]3(C)C2C(=O)C=C2C4[C@@H](C)[C@H](C)CC[C@]4(C(=O)O)CC[C@]23C)C1(C)C (stereo partly drawn) | -3 | 1
13 | CC(C)=CC(=O)NCCC1CCN(C(C)C)CC1 | 4 | 4
14 | CCN(CC)C(=O)C1(NC(=O)c2sccc2C)CCCCC1 | -23 | -23
15 | Cc1cc(C)cc(OCC(=O)Nc2ccc(N3CCCC3=O)c(C)c2)c1 | 3 | 5
16 | CCc1cnc(C)nc1NCCc1cn2ccccc2n1 | 2 | 13
17 | CCCNCc1c(-c2ccccc2)noc1N1CCOCC1 | 9 | 6
18 | O=C(NCC1CCN(c2ccc(F)cc2)C1)c1cnn(-c2ccccc2F)c1 (stereo not drawn) | 4 | 9
19 | CC(C)c1noc(C(C)S(=O)(=O)Cc2ccc(F)c(Br)c2)n1 (stereo not drawn) | 16 | 19
20 | COCC(c1ccccn1)N(C)C(=O)CC(=O)Nc1cc(C)cc(C)c1 (stereo not drawn) | 5 | 18
21 | CC(=O)Nc1ccc(Cl)c(NCC(=O)NC(C2CC2)C2CC2)c1 | 5 | 9
22 | CC1CCC(NC(=O)c2ccc(Cn3cncn3)cc2)CC1 (stereo not drawn) | 1 | 0
23 | Cc1cc(C)n2c(Nc3c(C)cccc3C)c(-c3ccccc3)nc2c1 | 2 | 5
24 | O=[N+]([O-])c1ccc(C2CN=C(Nc3ccccc3)O2)cc1 (stereo not drawn) | 8 | 12
25 | Cc1nc(C(F)(F)F)ccc1C(=O)N1CCC1(C)C(=O)NS(=O)(=O)c1ccc(F)cc1F (stereo not drawn) | 3 | 0
26 | CCC(C(=O)N1CCCC1)n1c(=O)n(-c2ccc(C)c(Cl)c2)c(=O)c2ccccc21 (stereo not drawn) | -1 | -8
27 | Cc1nc2ccc(Cl)cn2c(=O)c1NC(=O)Cc1ccc(F)cc1 | 1 | 2
28 | CC(C)NC(=O)N(Cc1nccn1Cc1c(F)cccc1Cl)C(C)C | 15 | 6
29 | Cc1ccccc1C1CC(=O)N(CN2CCN(Cc3ccsc3)CC2)C1 (stereo not drawn) | -1 | 3
30 | O=S(=O)(c1ccc(C(F)(F)F)cc1Cl)N1CCC(Cc2ccc(F)cc2)CC1 | 9 | 21
31 | CCn1ccnc1CNC1(Cc2ccc(Br)cc2)CCCCC1 | 1 | 3
32 | Cc1nn(C)c(NN2C(=O)c3cccc4cccc(c34)C2=O)c1[N+](=O)[O-] | 2 | 3
33 | CCN1C(=O)COc2cc3c(cc21)C(c1ccncc1F)CC(=O)N3 (stereo not drawn) | 1 | 2
34 | COc1ccc(-c2cn3nc(SCC(=O)Nc4cccc(C)c4)ccc3n2)cc1 | 3 | 5
35 | O=c1c2c3c(sc2[nH]c(=S)n1C1CCCC1)CCCC3 | -9 | -6
36 | Cc1nc(SC(C)C(=O)O)[nH]c(=O)c1C (stereo not drawn) | 8 | 2
37 | CCCNC(=O)CSc1nc2ccccc2n1C | 0 | 3
38 | CC(=O)Cn1c(=O)c2c(nc3n(C4CCCCC4)c(C)c(C)n23)n(C)c1=O | 24 | 0
39 | CCCc1cn(CC2CCN(C(=O)Nc3ccc4c(c3)OCO4)CC2)nn1 | -8 | -4
40 | CCCCCCc1ccc(C(=O)N2CCN(C(=O)CCCCSc3nnc(-c4ccco4)n3-c3ccc(OC)cc3)CC2C)cc1 (stereo not drawn) | 16 | 8

Grouped by structure, the compounds so far containing an aryl thioether with sulfur outside any ring.
No. | Molecule | NPYLR7 agonist max-min | NPYLR7 agonist
34 | COc1ccc(-c2cn3nc(SCC(=O)Nc4cccc(C)c4)ccc3n2)cc1 | 3 | 5
36 | Cc1nc(SC(C)C(=O)O)[nH]c(=O)c1C (stereo not drawn) | 8 | 2
37 | CCCNC(=O)CSc1nc2ccccc2n1C | 0 | 3
40 | CCCCCCc1ccc(C(=O)N2CCN(C(=O)CCCCSc3nnc(-c4ccco4)n3-c3ccc(OC)cc3)CC2C)cc1 (stereo not drawn) | 16 | 8

Molecules listed so far containing a COOH group:
No. | Molecule | NPYLR7 agonist max-min | NPYLR7 agonist
12 | CC(=O)O[C@H]1CC[C@@]2(C)C(CC[C@]3(C)C2C(=O)C=C2C4[C@@H](C)[C@H](C)CC[C@]4(C(=O)O)CC[C@]23C)C1(C)C (stereo partly drawn) | -3 | 1
36 | Cc1nc(SC(C)C(=O)O)[nH]c(=O)c1C (stereo not drawn) | 8 | 2

Other structures.
No. | Molecule | NPYLR7 agonist max-min | NPYLR7 agonist
41 | Cc1ccc(S(=O)(=O)CCC(=O)N(Cc2ccccn2)c2nc3c(F)cccc3s2)cc1 | -3 | 1
42 | O=C(C1CC1)N1CCN(c2ccc([N+](=O)[O-])cc2)CC1 | -12 | -11
43 | Cc1ccc(Nc2nc(N3CCCC3)nc3nccnc23)cc1C | 6 | 4
44 | CC1(Cc2ccc3c(c2)OCO3)C(=O)Nc2c(Cl)ccc(Cl)c21 (stereo not drawn) | -1 | 1
45 | CN(C)CCCN(CC1CCN(C2Cc3ccccc3C2)CC1)C(=O)C1CCCC1 | -7 | -3
46 | OCc1nc2ccc(Oc3ccc4nc(CO)[nH]c4c3)cc2[nH]1 | 1 | 4
47 | CCOc1ccccc1C(=O)NCCOc1ccc2nnc(-c3ccc(F)cc3)n2n1 | -12 | -8
48 | Cc1ccc2c(CC(=O)OC(C)C(=O)NC(=O)NC3CCCCC3)coc2c1 (stereo not drawn) | 8 | 11
49 | Cn1cc(C(=O)Nc2cccc3ccccc23)c2[nH]c(=O)n(-c3ccccc3)c(=O)c21 | -2 | 1
50 | CC(C)CCCC(C)C1CCC2C3C[C@@H](O)[C@@]4(O)C[C@@H](O)CC[C@]4(C)C3CC[C@]12C (stereo partly drawn) | -16 | -13
51 | Cc1cc(NC(=O)COCC2CC2)ncc1Br | 6 | 9
52 | CCOC(=O)c1nc2cc(Cl)c(Cl)cc2nc1N1CCN(C(=O)C2CCN(C(C)=O)CC2)CC1 | 0 | 5
53 | COc1cc(SCC(N)=NO)ccc1Cl | 2 | 8
54 | CCOC(=O)c1c(C)nc2c(c1-c1ccccn1)C(O)CC(c1ccc(OC)cc1)C2 (stereo not drawn) | -6 | -6
55 | COCCNC(=O)C1CCCN(C2CCN(c3ccnc(SC)n3)CC2)C1 (stereo not drawn) | -3 | 6
56 | C=CCOCC(O)CN(Cc1ccc(OC)c(OC)c1)CC1CCCO1 (stereo not drawn) | 17 | 19
57 | CCc1nc2ccc(C(=O)Nc3cccc(NS(C)(=O)=O)c3)cn2c1N(CC)CCN(C)C | -9 | -5
58 | O=C(Nc1ccc(Cl)cc1)Nc1ccc2c(c1)C(=O)OC2 | 13 | 8
59 | CN(C(=O)C1CCN(Cc2ccc(Cl)cc2)CC1)C(c1ccc(F)cc1)c1ccccn1 (stereo not drawn) | -12 | -12
60 | CCOC(=O)C1(C)CCN1C(=O)c1cc(-c2ccc(Cl)cc2)oc1C (stereo not drawn) | -3 | -1
61 | CC1(C)CC(=O)C2=C(C1)OC(=O)CC2c1cccs1 (stereo not drawn) | 10 | 10
62 | CCOC(=O)N1CCN(C2CCCN(C(=O)CCN3CCCCO3)C2)CC1 (stereo not drawn) | -1&-1 | 3&2
63 | CCCCN(CC(=O)N(CCc1c[nH]c2ccccc12)Cc1ccc(F)cc1)C(=O)c1ccc([N+](=O)[O-])cc1 | 14 | 1
64 | CSc1nnc2c(n1)OC(c1ccccc1)Nc1ccc(Br)cc1-2 (stereo not drawn) | 7 | 9
65 | Cc1sc(NC(=O)C2CC2)c(C(N)=O)c1C | 7 | 0
66 | O=C1c2cccnc2Oc2ccc(Cl)cc2N1CCOc1ccccc1 | 2 | -2
67 | Cc1ccc(C)c(Cn2ccnc2CN(Cc2ccco2)C(=O)c2ccc(Cl)cc2)c1 | 6 | 2
68 | O=S1(=O)CCN2N=C(c3ccccc3)C(c3ccccc3)=NC2=N1 | -7 | -4
69 | CCCCCOC(=O)C1=C(C)N(C)C(=O)NC1c1ccc([N+](=O)[O-])cc1 (stereo not drawn) | -6 | 0
70 | O=C(COc1ccccc1)Nc1ccccc1N1CCOCC1 | -6 | -8
71 | O=C1CC(c2ccc(O[C@@H]3OC(CO)[C@@H](O)C(O)C3O)cc2)Oc2cc(O)ccc21 (stereo partly drawn) | 1 | 2
72 | COc1ccc(-c2noc(CN(C)CCOc3ccc(C)cc3)n2)c(OC)c1OC | 1 | 4
73 | CC(=O)c1csc(NC(=O)c2ccc(C3SCCS3)cc2)n1 | 7 | 15
74 | CCCc1ncncc1C(=O)N1Cc2cnc(CC)nc2C1 | 6 | 21
75 | COc1cc2c(cc1C(=O)N1CCOC(c3ccc(Cl)cc3)C1)CCC2 (stereo not drawn) | 6 | 11
76 | CC(C)C(=O)N(CCN(C)C)Cc1cc(Cl)ccc1OS(=O)(=O)c1ccc(F)cc1 | -2 | -3
77 | O=C(c1cc(Cl)cc(Cl)c1)N1CCC(Cc2ccccc2)CC1 | 10 | 1
78 | Cc1nc(-c2cccs2)sc1-c1ccc(SCCN2CCOCC2)nn1 | -9 | 2
79 | CCCCOc1ccccc1C1C(C(=O)OC(C)C)=C(C)NC2=C1C(=O)CCC2 (stereo not drawn) | -8 | -2
80 | COc1ccc(NC(=O)N2CCC3(CCCN(C)C3=O)C2)cc1OC (stereo not drawn) | 4 | 6
81 | O=C(c1cc2c(s1)CCCC2)N1CCCn2cncc2C1 | 10 | 19
82 | CC(C)S(=O)(=O)CCS(=O)(=O)c1cccc(Br)c1 | 25 | -1
83 | CCCCCOc1ccc(C(=O)NCCc2ccc(S(N)(=O)=O)cc2)cc1OCCCCC | -12 | -6
84 | COc1cc(OC)cc(C(=O)N2CC(=O)N3CCc4cc(C)ccc4C3C2)c1 (stereo not drawn) | 9 | 2
85 | Cc1ccc(C)c(S(=O)(=O)CCN2CCN(C)CC2C)c1 (stereo not drawn) | 14 | 12
86 | COc1cc2c(cc1-c1nccn1C(C)c1ccncn1)OCO2 (stereo not drawn) | -4 | 0
87 | O=C(c1cc2n(n1)CCN(Cc1ccccc1C(F)(F)F)C2=O)N1CCC(Cc2ccccc2)CC1 | 1 | -12
88 | O=C(NCc1ccc(F)cc1)C(=O)Nc1ccc(C(F)(F)F)cc1 | 22 | 28
89 | Cn1c(=O)c(C(=O)NCCCl)c(O)c2ccccc21 | -1 | 0
90 | Cc1c(C(=O)NCc2ccc3ccccc3n2)oc2c(F)cccc12 | -3 | 1
91 | Cc1ccc(CN(C)C(=O)CCC(=O)c2ccc3c(c2)OCCO3)cc1 | 8 | 9
92 | O=C1NC2(CCCCCC2)C(=O)N1CN1CCCN(Cc2ccc(C(F)(F)F)cc2)CC1 | 15 | 4
93 | O=C(O)c1n[nH]c(=S)n1C1CC1 | 9 | 9
94 | CCOc1ccc(Br)cc1NC(=O)N1CCOCC1 | 1&13 | 6&18
95 | CCCCN(CC(=O)Nc1cc(C(C)(C)C)nn1-c1ccc(Cl)c(Cl)c1)C(=O)COCc1ccccc1 | 24 | 19
96 | O=C(CNS(=O)(=O)c1c(F)cccc1F)N1CCC2(CC1)Nc1ccccc1S(=O)(=O)N2 | 9 | 2
97 | O=c1c2cnc3nc(-c4cccnc4)nn3c2ccn1CCc1c[nH]c2ccc(Cl)cc12 | 8 | 4
98 | COc1ccc(CN2CCN(c3ccc(C)c(Cl)c3)C(=O)C2C)cc1 (stereo not drawn) | 1 | 0
99 | CCOC(=O)c1sc(NC(=O)Cn2nc([N+](=O)[O-])c([N+](=O)[O-])c2C)c(C(=O)OCC)c1C | -1 | 2
100 | CSc1ccc(C(NC(=O)c2cccc(Br)c2)c2cccc(Cl)c2Cl)cc1 (stereo not drawn) | -5 | -1

3 entries from above in another layout:
[87] O=C(c1cc2n(n1)CCN(Cc1ccccc1C(F)(F)F)C2=O)N1CCC(Cc2ccccc2)CC1
  NPYLR7 agonist max-min: 1	NPYLR7 agonist: -12
[88] O=C(NCc1ccc(F)cc1)C(=O)Nc1ccc(C(F)(F)F)cc1
  NPYLR7 agonist max-min: 22	NPYLR7 agonist: 28
[89] Cn1c(=O)c(C(=O)NCCCl)c(O)c2ccccc21
  NPYLR7 agonist max-min: -1	NPYLR7 agonist: 0

Next section
No. | Molecule | NPYLR7 agonist max-min | NPYLR7 agonist
101 | CCc1ccc(CN2CC[C@@H](c3sccc3C)[C@H](O)C2)nc1 | 6 | 9
102 | OC1(c2ccccn2)COc2ccccc2O1 (stereo not drawn) | 1 | -4
103 | CCCCOc1ccc(-c2nc(C=Nc3cccc(C(F)(F)F)c3)c(O)o2)cc1 | -1 | 3
104 | CCC(C)N(Cc1cccc(OS(=O)(=O)c2ccc(NC(C)=O)cc2)c1)C(=O)c1ccccc1F (stereo not drawn) | 18 | 18
105 | CC(C)N(C)c1ccc(NC(=O)CC2CCCO2)cc1F (stereo not drawn) | 4 | 9
106 | COc1cc(OC)cc(-c2cnccc2C)c1 | 6 | 8
